High-throughput results (PubChem)
HSV augment: increases HSV replication in cells | maximum fold increase | AID 1956 | 0.005% of 220,000 active | HSV replication augmentation in cells, fold increase;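 active = peak rise of 1.5-fold or more in the series; tested in PC3 cells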;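 also: first round at 10 µM; read as green reporter fluorescence; hits show the peak of a series up to 25 µM; 1 = signal of infected wells without compound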
RGS16-Gao HTS: modulates binding between human RGS16 and Galphao; 0.38% of 220,000 active; bead-based flow cytometry RGS16-Galphao binding, fluorescence; actives lie on both sides; binding response (% of control), % at 10 µM; AID 1441;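 active = below 25% or above 175%, edge rows of some plates excepted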;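 also: Galphao activated by GDP with aluminum fluoride before binding; 100% = wells without compound and 0% = beads without RGS; some results beyond the cut were filed as inactive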
GALR2 agonist: activates the human galanin receptor 2 | O43603 | GALR2-expressing cells, agonist activation read-out | 0.48% of 140,000 active | AID 803 | activation, %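 (tested at 5 µM)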;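 active = above mean plus 3 SD of all compounds, about 5% in these data, not always enough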;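 also: 0% = vehicle buffer wells and 100% = reference agonist at full effect; tested in CHO reporter cells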
INS promoter inh: TRM-6 insulin promoter activity inhibition | AID 1273 | TRM-6 cells (human fetal islet line), insulin promoter-eGFP reporter, imaging; reporter expression induced with tamoxifen | 0.9% of 130,000 active | inhibition, % at 2 µM;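 active = inhibition above the mean plus 3 SD, with well images judged a real hit on visual review, cut at about 60% in these data, passing the limit was not always enough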
PKD1 kinase inh: blocks activity of human protein kinase D1. PKD1 kinase fluorescence polarization assay. 0.056% of 200,000 active. inhibition, %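 (about 10 µM by stock and volumes)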. Q15139. AID 797;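 active = inhibition of 50% or more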;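 also: controls were vehicle for no effect and a reference inhibitor for full effect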
Target sequence (Q15139 whole entry, looked up): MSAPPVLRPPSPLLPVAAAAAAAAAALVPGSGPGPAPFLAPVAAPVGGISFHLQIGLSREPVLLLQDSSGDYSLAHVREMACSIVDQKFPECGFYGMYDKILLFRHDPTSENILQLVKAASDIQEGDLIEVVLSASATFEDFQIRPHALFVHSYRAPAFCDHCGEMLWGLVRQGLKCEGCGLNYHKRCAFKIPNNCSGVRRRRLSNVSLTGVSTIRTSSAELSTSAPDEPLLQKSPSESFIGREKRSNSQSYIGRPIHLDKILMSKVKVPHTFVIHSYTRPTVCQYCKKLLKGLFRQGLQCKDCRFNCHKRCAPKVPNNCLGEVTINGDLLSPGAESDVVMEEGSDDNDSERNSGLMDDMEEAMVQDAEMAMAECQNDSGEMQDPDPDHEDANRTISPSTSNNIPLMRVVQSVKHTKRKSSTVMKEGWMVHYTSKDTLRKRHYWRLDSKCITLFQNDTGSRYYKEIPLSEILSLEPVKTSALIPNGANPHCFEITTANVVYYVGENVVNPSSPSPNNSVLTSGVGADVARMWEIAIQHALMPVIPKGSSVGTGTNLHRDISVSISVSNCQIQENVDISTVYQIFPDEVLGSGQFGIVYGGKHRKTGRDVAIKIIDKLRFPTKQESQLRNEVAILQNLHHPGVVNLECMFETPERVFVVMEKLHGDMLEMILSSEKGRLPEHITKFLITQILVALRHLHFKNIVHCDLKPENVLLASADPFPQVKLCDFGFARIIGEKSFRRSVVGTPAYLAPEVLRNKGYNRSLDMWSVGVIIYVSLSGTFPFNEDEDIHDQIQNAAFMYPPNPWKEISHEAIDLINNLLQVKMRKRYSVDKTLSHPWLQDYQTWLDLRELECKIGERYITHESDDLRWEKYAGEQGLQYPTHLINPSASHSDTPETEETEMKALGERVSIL
INS promoter inh cell count: also measured in INS promoter inh; calls as there; normalized cell count, %; measured here: cell count, toxicity; reference of the scale not given here;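 cells exposed to compound for 48 h; stained nuclei by imaging scaled within each plate; lower means fewer cells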
HSV augment primary fold: further read-out of HSV augment, marked with its call; fold increase; compound at 10 µM; measured here: primary screen fold increase 10 uM; tested in PC3 cells;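 GFP signal in the first replicate; 1 = infected wells without compound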
The depositor's hits bear a star; i = inactive; / = no result given.

The first 2 entries as a preview:
SMILES	HSV augment	HSV augment primary fold	RGS16-Gao HTS	GALR2 agonist	INS promoter inh	INS promoter inh cell count	PKD1 kinase inh
Cc1cccc(CSC(=N)N)c1	i	0.95	119.8	-0.1	/	/	-2.1
O=C(NCC1CCCO1)C(C(=O)c1ccc(F)cc1)n1ccccc1=O (stereo not given)	i	0.91	105.0	-1.2	/	/	-3.0

Results (from the top)
SMILES	HSV augment	HSV augment primary fold	RGS16-Gao HTS	GALR2 agonist	INS promoter inh	INS promoter inh cell count	PKD1 kinase inh
Cc1cccc(CSC(=N)N)c1	i	0.95	119.8	-0.1	/	/	-2.1
O=C(NCC1CCCO1)C(C(=O)c1ccc(F)cc1)n1ccccc1=O (stereo not given)	i	0.91	105.0	-1.2	/	/	-3.0
NC(=O)c1ccc(Nc2ccc([N+](=O)[O-])cc2[N+](=O)[O-])cc1	i	0.89	100.1	/	/	/	-0.2
Cc1cccc(S(=O)(=O)Nc2ccc(C)c3c2OC(C)(C)C3)c1	i	1.1	102.4	0.1	-3.6	27.1	-11.0
O=C(C1CCCCN1S(=O)(=O)c1ccccc1[N+](=O)[O-])N1CCCCC1 (stereo not given)	i	1.06	94.3	/	-30.0	117.8	3.4
COCCCNC(=O)c1ccc2c(=O)n(C3CCCC3)c(=S)[nH]c2c1	i	0.81	100.8	-0.2	/	/	-1.4
CC1CC(C)CN(CCCNC(=O)CCNC(=O)Cn2ccc3ccccc3c2=O)C1 (stereo not given)	i	0.94	90.8	-2.1	5.7	93.8	4.5
O=C(CCn1nnc2ccccc21)Nc1nnc(Cc2ccc(F)cc2)s1	i	0.91	100.1	-1.2	-22.2	112.6	-7.1
Cc1cc(-c2ccccc2)[nH]c(=O)c1C#N	i	0.97	97.3	/	-23.1	108.8	1.4
Cc1noc(C)c1COc1cccc(C(=O)OCC(=O)N2CC(=O)Nc3ccccc32)c1	i	0.58	100.5	1.1	-209.1	11.6	-2.5
CCOc1ccc2c(c1)OC(c1ccc(OC)cc1)(C(F)(F)F)NC2=O (stereo not given)	i	0.84	104.1	2.0	/	/	-7.5
O=C(CN1C2CCCC1CC(NC(=O)c1ccccc1)C2)NC1CC1 (stereo not given)	i	0.92	106.8	/	/	/	-1.3
COC(=O)CNC(=O)CSc1ccccn1	i	1.1	104.8	/	/	/	/
COn1c(=O)c(=O)n(O)c2ccccc21	i	0.99	114.2	-3.0	-34.1	87.5	-4.8
Cc1cn(CCC(=O)Nc2ccc(N3CCOCC3)cc2)c2ccccc12	i	1.06	100.6	/	/	/	/
O=C(CCC1COc2ccccc2O1)NCc1ccco1 (stereo not given)	i	0.95	95.9	-3.7	-176.9	69.1	1.9
Cc1ccccc1N1C(=O)c2sc3nc4c(c(=O)n3c2C1=O)CCC4	i	0.93	90.6	-1.4	-85.7	71.2	3.4
COc1ccc(S(=O)(=O)N2CC3C4C=CC(C4)C3C2)cc1 (stereo not given)	i	1.1	103.0	-0.1	/	/	-9.4
Cc1c(NC(=O)C(C)OC(=O)c2sc3ccccc3c2Cl)c(=O)n(-c2ccccc2)n1C (stereo not given)	i	0.91	47.8	-1.3	3.3	106.3	-0.5
COc1ccc(S(=O)(=O)N2CCCC(C(=O)NCCC3=CCCCC3)C2)cc1 (stereo not given)	i	0.98	102.7	0.4	-13.5	69.7	0.2
CCCOC(=O)c1ccc(OCC(O)CN2C(=O)NC(C)(C)C2=O)cc1 (stereo not given)	i	1	93.6	-2.0	/	/	-13.7
Cc1ccc(/C=C/C(=O)c2ccccc2)cc1	i	0.97	104.4	0.3	29.0	120.7	3.4
COc1ccc2[nH]cc(C(O)CN3CCN(c4ccccc4F)CC3)c2c1 (stereo not given)	i	1.05	98.6	/	/	/	/
Cc1ccc(CNC(=O)CCCc2ccccc2)cc1	i	0.97	102.7	/	/	/	-10.0
CC(C)n1c(NCCO)nc2ccccc21	i	1.05	49.1	/	13.3	75.3	-4.7

Remaining list, next part.
SMILES	HSV augment	HSV augment primary fold	RGS16-Gao HTS	GALR2 agonist	INS promoter inh	INS promoter inh cell count	PKD1 kinase inh
CCC1(C)Cc2nc3[nH]c(=S)n(-c4ccc(C)cc4)c(=O)c3cc2CO1 (stereo not given)	i	1.06	97.8	0.0	20.6	111.2	-4.2
O=C(NCc1ccccc1Cl)C1CCN(S(=O)(=O)c2ccc(F)cc2)CC1	i	1.02	99.4	/	-47.1	121.5	-0.6
C=CCN1C(=O)C(C)NC1=S (stereo not given)	i	0.97	96.7	/	/	/	/
O=C(Cn1nnc(-c2ccccc2F)n1)Nc1ccc(S(=O)(=O)NC2CCCC2)cc1	i	0.95	46.5	-0.5	-14.7	49.3	-13.6
O=c1cc(O)n(-c2ccccc2)c(=S)[nH]1	i	0.943	102.7	-1.3	18.8	100.3	-3.2
CC(C)(C)NC(=S)NNC(=O)c1ccccc1Cl	i	1.15	103.6	-0.5	/	/	-1.1
CC(C)CN(C(=O)COC(=O)c1ccc([N+](=O)[O-])o1)C1CCS(=O)(=O)C1 (stereo not given)	i	0.99	127.2	-1.8	-31.2	76.7	-9.0
Cc1cccc2cc(C3CC(c4cccs4)=NN3S(C)(=O)=O)c(Cl)nc12 (stereo not given)	i	0.99	107.9	/	/	/	/
Cc1ccc2sc(NC(=O)c3ccc(N4C(=O)CCC4=O)cc3)nc2c1C	/	/	109.5	6.7*	25.0	151.1	-2.0
CN(C)C(=O)CS(=O)(=O)c1ccc(Cl)cc1	i	0.97	93.7	/	/	/	/
Cc1ccccc1CSCC(=O)NCc1ccco1	i	0.79	98.4	-0.3	/	/	2.3
Cc1ccc(C)c(S(=O)(=O)Nc2nc3ccc(S(N)(=O)=O)cc3s2)c1	i	1.08	96.7	/	/	/	-1.2
COc1ccc(CCC(=O)N2CCc3ccccc32)cc1	i	1.07	99.5	-3.0	-366.7	63.4	-4.1
COc1ccc([N+](=O)[O-])cc1N(CC(=O)N1CCCC1)S(C)(=O)=O	i	0.99	100.7	/	25.7	137.0	-6.2
O=C(CN1C(=O)C(=O)N(C2CCCC2)C1=O)Nc1ccc(N2CCOCC2)cc1	i	0.9	97.4	/	37.5	110.3	-4.6
CC12c3ccccc3C(c3ccccc31)C1C(=O)N(c3cccnc3)C(=O)C12 (stereo not given)	i	0.94	102.3	-1.4	23.3	82.9	-14.8
CN(C)c1ccc(Sc2nnc(NC(=O)Nc3ccc(Cl)cc3Cl)s2)cc1	i	1.01	95.9	-1.9	46.7	76.7	-3.4
COc1ccc(-c2nc(CNS(=O)(=O)c3cc(OC)ccc3OC)cs2)cc1	i	0.68	93.3	-1.7	28.6	154.6	-5.9
CC(C(=O)Nc1ccc(F)c(F)c1F)N1CCCCCC1 (stereo not given)	/	/	113.5	-1.2	6.9	97.2	3.5
O=C(N/N=C(\Cc1ncc[nH]1)c1ccccc1)c1ccncc1	i	0.71	97.4	/	/	/	6.4
COc1ccccc1NS(=O)(=O)c1cccc(C(=O)N/N=C(\C)c2ccc3c(c2)OCCO3)c1	i	0.97	105.4	-1.2	-17.9	71.8	0.7
O=C(O)CSc1cccc2cccc(C(=O)O)c12	i	0.92	103.7	-2.2	/	/	4.3
O=C(CNC(=O)c1ccccc1)N/N=C/c1ccccc1Cl	i	0.9	101.1	/	-16.7	102.0	-2.2
CC1=CCC(C(=O)O)(C(=O)N/N=C/c2cccs2)C(c2ccc(Cl)cc2)C1 (stereo not given)	i	1.08	91.6	-0.7	-31.2	167.1	-3.5
O=C(NCCc1ccccc1)c1cc2sccc2n1Cc1ccccc1	i	1.1	104.7	-1.1	-7.7	59.0	-0.7

Reprinted at random: six entries already listed
SMILES	HSV augment	HSV augment primary fold	RGS16-Gao HTS	GALR2 agonist	INS promoter inh	INS promoter inh cell count	PKD1 kinase inh
COc1ccc([N+](=O)[O-])cc1N(CC(=O)N1CCCC1)S(C)(=O)=O	i	0.99	100.7	/	25.7	137.0	-6.2
COc1ccc(-c2nc(CNS(=O)(=O)c3cc(OC)ccc3OC)cs2)cc1	i	0.68	93.3	-1.7	28.6	154.6	-5.9
O=C(O)CSc1cccc2cccc(C(=O)O)c12	i	0.92	103.7	-2.2	/	/	4.3
COc1ccc(CCC(=O)N2CCc3ccccc32)cc1	i	1.07	99.5	-3.0	-366.7	63.4	-4.1
CN(C)c1ccc(Sc2nnc(NC(=O)Nc3ccc(Cl)cc3Cl)s2)cc1	i	1.01	95.9	-1.9	46.7	76.7	-3.4
Cc1ccccc1CSCC(=O)NCc1ccco1	i	0.79	98.4	-0.3	/	/	2.3

Additional entries
SMILES	HSV augment	HSV augment primary fold	RGS16-Gao HTS	GALR2 agonist	INS promoter inh	INS promoter inh cell count	PKD1 kinase inh
CC1(C)Cc2c(C#N)c(N3CCN(C(=O)c4ccccc4)CC3)nc(-c3ccco3)c2CS1	i	1.05	97.1	-0.7	28.0	105.6	-7.4
Cc1nc(SCC(=O)Nc2cc(C)on2)c2c(C)c(C)sc2n1	i	0.93	113.2	-0.8	8.3	129.2	3.0
O=C(Nc1nc(-c2ccccn2)cs1)C12CC3CC(CC(O)(C3)C1)C2	i	1.06	98.4	/	/	/	-1.7
O=C(Nc1ccc(S(=O)(=O)NC2=NCCCCC2)cc1)c1ccc(=O)[nH]c1	i	0.95	105.1	/	-100.0	134.1	-1.8
FC(F)(F)c1cccc(NC(=S)Nc2cccc(Cl)c2)c1	i	0.857	97.8	-1.8	26.7	82.2	22.5
CN1CCN(C(=O)Nc2ccccc2)CC1	i	0.92	93.2	/	/	/	0.5
COc1ccccc1CNC(=O)Cn1nnc(-c2ccncc2)n1	i	0.943	101.3	-1.9	-25.0	190.1	-10.4
CCc1cccc(CC)c1NC(=S)N1CCn2cccc2C1c1ccncc1 (stereo not given)	i	1	87.1	/	-70.6	118.9	-1.4
CCOc1ccccc1N1CCN(CC(=O)Nc2cc(C)on2)CC1	i	1.04	103.1	/	-78.4	112.4	0.4
C=CCn1c(=N)n(CC(=O)OC)c2ccccc21	i	0.93	101.1	0.0	-39.4	101.2	-1.5
CO/N=C/c1c(-c2ccccc2)nn(C)c1Cl	i	1.01	101.1	/	-100.0	82.3	-1.4
Cc1ccccc1OCCC(=O)NCCc1ccc(S(N)(=O)=O)cc1	i	1.01	124.8	-0.8	-46.7	102.7	3.8
O=C(NNC(=S)Nc1ccc(Cl)cc1)c1ccccc1OC(F)F	i	0.84	105.2	-1.4	-240.0	122.5	3.0
COc1ccc(N2C(=O)CCC(C(=O)N3CCCCC3)C2c2ccc(F)cc2)cc1 (stereo not given)	i	0.97	103.9	-0.8	-12.5	77.6	8.2
O=S1(=O)c2ccccc2N=NN1Cc1ccc(Cl)cc1	i	1.04	97.6	-0.7	17.9	88.1	-6.4
CC1CCC(C(C)C)C(OCC(O)CNC(C)c2ccccc2)C1 (stereo not given)	i	0.9	104.1	/	/	/	-10.4
CCN1C(=O)c2ccc(C(=O)Nc3nccs3)cc2C1=O	i	0.99	111.7	-2.0	-347.6	43.8	-6.6
CCC(O)c1cc2c(cc1NC(=O)c1ccc(C)cc1)OCCO2 (stereo not given)	i	0.91	102.2	-0.5	-158.3	101.5	1.9
COc1ccc(C(=O)NCc2cccnc2)cc1Br	i	0.967	94.5	-0.8	17.2	254.7	-0.3
